Assay outcomes as filed in PubChem.
HSV replic up: enhancers of HSV replication in host cells, fold increase, host cell viability | 0.005% of 220,000 active | HSV replication augmentation in cells | maximum fold increase;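 active = peak rise of 1.5-fold or more in the series; tested in PC3 cells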;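 note: first round at 10 µM; read as green reporter fluorescence; hits show the peak of a series up to 25 µM; 1 = signal of infected wells without compound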
GALR2 ag: GALR2 receptor agonists, primary screen, cell-based. Galanin receptor type 2 (Homo sapiens), O43603. GALR2-expressing cells, agonist activation read-out. activation, %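 (tested at 5 µM)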. 0.48% of 140,000 active. AID 803, 2007;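 active = above mean plus 3 SD of all compounds, about 5% in these data, not always enough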;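 note: 0% = vehicle buffer wells and 100% = reference agonist at full effect; tested in CHO reporter cells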
Target sequence (O43603 whole entry, looked up): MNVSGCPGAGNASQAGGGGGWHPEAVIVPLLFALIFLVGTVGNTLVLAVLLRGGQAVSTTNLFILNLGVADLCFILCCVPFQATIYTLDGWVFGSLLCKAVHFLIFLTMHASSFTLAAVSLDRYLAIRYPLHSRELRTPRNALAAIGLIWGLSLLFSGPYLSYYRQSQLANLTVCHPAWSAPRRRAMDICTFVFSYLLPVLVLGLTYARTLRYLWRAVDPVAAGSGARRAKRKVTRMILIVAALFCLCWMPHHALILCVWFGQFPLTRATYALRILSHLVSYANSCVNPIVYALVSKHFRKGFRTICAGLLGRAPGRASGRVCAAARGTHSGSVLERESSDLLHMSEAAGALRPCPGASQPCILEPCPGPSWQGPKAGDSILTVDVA
PKD1 kinase inh: inhibitors of human PKD1 kinase, biochemical, fluorescence polarization | AID 797, 2007 | Serine/threonine-protein kinase D1 (Homo sapiens), Q15139 | PKD1 kinase fluorescence polarization assay | 0.056% of 200,000 active | inhibition, %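 (about 10 µM by stock and volumes)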;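 active = inhibition of 50% or more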;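 note: controls were vehicle for no effect and a reference inhibitor for full effect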
INS promoter inh: inhibitors of insulin promoter-driven GFP, primary screen, imaging, TRM-6 cells (human fetal islet line), eGFP reporter, cell count; 0.9% of 130,000 active; inhibition, % at 2 µM; AID 1273, 2008; reporter expression induced with tamoxifen;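 active = inhibition above the mean plus 3 SD, with well images judged a real hit on visual review, cut at about 60% in these data, passing the limit was not always enough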
RGS16-Gao: modulators of RGS16 binding to Galphao, primary screen, biochemical, human proteins, multiplexed bead flow cytometry; Regulator of G-protein signaling 16 (Homo sapiens) + Guanine nucleotide-binding protein …; bead-based flow cytometry RGS16-Galphao binding, fluorescence; actives lie on both sides; binding response (% of control), % at 10 µM; 0.38% of 220,000 active; AID 1441, 2008;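 active = below 25% or above 175%, edge rows of some plates excepted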;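 note: Galphao activated by GDP with aluminum fluoride before binding; 100% = wells without compound and 0% = beads without RGS; some results beyond the cut were filed as inactive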
Target sequence (O15492 whole entry, looked up): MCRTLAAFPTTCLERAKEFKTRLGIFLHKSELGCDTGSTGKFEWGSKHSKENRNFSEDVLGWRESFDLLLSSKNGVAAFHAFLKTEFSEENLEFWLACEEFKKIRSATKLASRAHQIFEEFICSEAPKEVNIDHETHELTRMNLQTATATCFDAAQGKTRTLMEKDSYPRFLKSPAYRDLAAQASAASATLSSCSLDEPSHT
Target sequence (P09471 whole entry, looked up): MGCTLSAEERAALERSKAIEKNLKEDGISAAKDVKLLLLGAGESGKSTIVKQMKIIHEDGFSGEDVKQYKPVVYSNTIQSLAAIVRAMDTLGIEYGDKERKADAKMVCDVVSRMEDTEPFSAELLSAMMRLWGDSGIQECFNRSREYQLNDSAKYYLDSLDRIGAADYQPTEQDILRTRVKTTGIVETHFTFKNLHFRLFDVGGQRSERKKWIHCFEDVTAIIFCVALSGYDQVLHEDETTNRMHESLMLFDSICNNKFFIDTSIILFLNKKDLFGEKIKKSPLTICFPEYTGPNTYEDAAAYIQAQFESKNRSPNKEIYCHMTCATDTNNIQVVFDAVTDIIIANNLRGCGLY
INS promoter inh cell count: recorded beside INS promoter inh, whose call it bears; normalized cell count, %; measured here: cell count, toxicity; reference of the scale not given here;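 cells exposed to compound for 48 h; stained nuclei by imaging scaled within each plate; lower means fewer cells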
HSV replic up primary fold: recorded beside HSV replic up, whose call it bears; fold increase; compound at 10 µM; measured here: primary screen fold increase 10 uM; tested in PC3 cells;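 GFP signal in the first replicate; 1 = infected wells without compound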
Active calls of the source: *.

Results for COc1ccccc1N(CC(O)COc1c(C)cc(C)cc1C)S(=O)(=O)c1ccccc1 (centres undefined) ?
HSV replic up: inactive; GALR2 ag: -2.8; PKD1 kinase inh: -6; INS promoter inh: -44; RGS16-Gao: 98; INS promoter inh cell count: 105; HSV replic up primary fold: 1

What do the screens show for `NC(=O)CC(NC(=O)c1ccccc1)c1ccc(NCCOc2ccccc2)c([N+](=O)[O-])c1` (centres undefined)?
HSV replic up: inactive; RGS16-Gao: 101; HSV replic up primary fold: 0.7

How did CCC1(COC(=O)Nc2cccc(Cl)c2)COC1 do in these assays?
HSV replic up: inactive; GALR2 ag: -0.7; PKD1 kinase inh: -9; INS promoter inh: -40; RGS16-Gao: 104; INS promoter inh cell count: 109; HSV replic up primary fold: 0.91

Results for Cc1ccc(NC(=O)COC(=O)c2ccn(C)n2)cc1 ?
HSV replic up: inactive; GALR2 ag: 0.9; PKD1 kinase inh: -6; INS promoter inh: 11; RGS16-Gao: 101; INS promoter inh cell count: 66; HSV replic up primary fold: 1.1

What do the screens show for `COC(=O)CSc1nnc(CNC(=O)c2cc(OC)c(OC)c(OC)c2)n1C`?
HSV replic up: inactive; GALR2 ag: -2.8; PKD1 kinase inh: -17; RGS16-Gao: 97; HSV replic up primary fold: 1.2

Results for Cc1cc(C)c(OCC(=O)Nc2ccc(NC(=O)c3ccco3)cc2)c([N+](=O)[O-])c1 ?
HSV replic up: inactive; GALR2 ag: -0.1; PKD1 kinase inh: -3; INS promoter inh: 64*; RGS16-Gao: 121; INS promoter inh cell count: 76*; HSV replic up primary fold: 0.81

How did N#Cc1ccc(NC(=S)Nc2ccccc2)cc1 do in these assays?
HSV replic up: inactive; GALR2 ag: -1.6; PKD1 kinase inh: 7; INS promoter inh: 25; RGS16-Gao: 56; INS promoter inh cell count: 92; HSV replic up primary fold: 0.93

How did CCCCCc1ccc(S(=O)(=O)NCCc2ccncc2)cc1 do in these assays?
HSV replic up: inactive; GALR2 ag: 0.1; PKD1 kinase inh: 1; INS promoter inh: -38; RGS16-Gao: 98; INS promoter inh cell count: 86; HSV replic up primary fold: 1.1

Results for Cc1ccccc1CS(=O)(=O)CCC(=O)NCc1ccccn1 ?
HSV replic up: inactive; GALR2 ag: 0.3; PKD1 kinase inh: 0; INS promoter inh: 0; RGS16-Gao: 104; INS promoter inh cell count: 79; HSV replic up primary fold: 1

What do the screens show for `COc1ccccc1-c1cc(C(F)(F)F)n2ncc(S(=O)(=O)c3ccccc3)c2n1`?
HSV replic up: inactive; GALR2 ag: -0.9; PKD1 kinase inh: -2; INS promoter inh: 23; RGS16-Gao: 100; INS promoter inh cell count: 81; HSV replic up primary fold: 0.9

Results for COc1ccc(-c2cn(-c3ccc(SC(F)F)cc3)c3[n+]2CCC3)cc1OC ?
HSV replic up: inactive; GALR2 ag: -0.9; PKD1 kinase inh: 8; INS promoter inh: -7; RGS16-Gao: 95; INS promoter inh cell count: 132; HSV replic up primary fold: 0.9

How did Cc1ccccc1NC(=O)CSc1nc(O)cc(=O)n1C do in these assays?
HSV replic up: inactive; RGS16-Gao: 102; HSV replic up primary fold: 1

Results for CCCCn1c(SCC(=O)NCc2ccccc2)nc2ccc(N3CCOCC3)cc2c1=O ?
HSV replic up: inactive; GALR2 ag: 0.2; PKD1 kinase inh: -3; INS promoter inh: 69; RGS16-Gao: 102; INS promoter inh cell count: 139; HSV replic up primary fold: 0.9

Results for CCCCC(=O)Nc1ccccc1CC ?
HSV replic up: inactive; RGS16-Gao: 100; HSV replic up primary fold: 0.95

How did Nc1ccc(Oc2ccc(Cl)cc2)cc1 do in these assays?
HSV replic up: inactive; GALR2 ag: -0.8; PKD1 kinase inh: 0; INS promoter inh: -56; RGS16-Gao: 100; INS promoter inh cell count: 87; HSV replic up primary fold: 0.86

Results for NC(=O)/C=C\c1cn(-c2ccccc2)nc1-c1ccc2c(c1)OCCO2 ?
HSV replic up: inactive; GALR2 ag: 1.0; PKD1 kinase inh: 9; INS promoter inh: 17; RGS16-Gao: 98; INS promoter inh cell count: 130; HSV replic up primary fold: 0.79

Results for CSCCC(NS(=O)(=O)c1ccc2c(c1)oc(=O)n2C)C(=O)NC1CCC(C)CC1 (centres undefined) ?
HSV replic up: inactive; GALR2 ag: -1.1; PKD1 kinase inh: -14; RGS16-Gao: 91; HSV replic up primary fold: 1

How did CC(C)[C@H](NC(=O)c1cccc(S(=O)(=O)N2CCCC2)c1)c1nc2ccccc2[nH]1 do in these assays?
HSV replic up: inactive; GALR2 ag: -0.6; PKD1 kinase inh: -10; INS promoter inh: -19; RGS16-Gao: 100; INS promoter inh cell count: 106; HSV replic up primary fold: 1

How did CC1CCN(C(=O)c2[nH]cnc2C(=O)N[C@@H](C)C(=O)OCc2ccccc2)CC1 do in these assays?
HSV replic up: inactive; RGS16-Gao: 97; HSV replic up primary fold: 0.95

How did COc1ccccc1/C=C1\CCCC2=C1Nc1nnnn1C2c1ccccc1OC (centres undefined) do in these assays?
HSV replic up: inactive; GALR2 ag: -0.1; PKD1 kinase inh: -1; RGS16-Gao: 97; HSV replic up primary fold: 0.87

Results for CC1S/C(=N/N=C/c2ccco2)N(Cc2ccccc2)C1=O (centres undefined) ?
HSV replic up: inactive; RGS16-Gao: 109; HSV replic up primary fold: 1.1

What do the screens show for `Cc1cc(NC(=O)c2cccc(S(=O)(=O)N(C)C)c2)n(-c2ccccn2)n1`?
HSV replic up: inactive; GALR2 ag: -0.5; PKD1 kinase inh: 3; INS promoter inh: 0; RGS16-Gao: 73; INS promoter inh cell count: 133; HSV replic up primary fold: 0.85

How did COC(=O)c1cc(OC)c(OC)cc1NC(=O)CN1CCOCC1 do in these assays?
HSV replic up: inactive; GALR2 ag: 0.5; PKD1 kinase inh: -8; INS promoter inh: -73; RGS16-Gao: 99; INS promoter inh cell count: 99; HSV replic up primary fold: 0.98

Results for CCN(CC)S(=O)(=O)c1ccc2c(c1)nc(SCC(=O)N1CCCCCC1)n2-c1ccc(OC)cc1 ?
HSV replic up: inactive; GALR2 ag: 0.8; PKD1 kinase inh: 2; INS promoter inh: -3; RGS16-Gao: 107; INS promoter inh cell count: 90; HSV replic up primary fold: 0.89

Results for COc1cc(/C=C2\COC/C(=C\c3ccc(O)c(OC)c3)C2=O)ccc1O ?
HSV replic up: inactive; RGS16-Gao: 98; HSV replic up primary fold: 0.66

Results for Cn1c(=O)c2c(nc(NCc3ccccc3)n2CC(N)=O)n(C)c1=O ?
HSV replic up: inactive; RGS16-Gao: 99; HSV replic up primary fold: 0.92

Results for Cn1nc(-c2ccc(N3CCCCC3)c(NC(=O)c3ccco3)c2)c2ccccc2c1=O ?
HSV replic up: inactive; GALR2 ag: -2.8; PKD1 kinase inh: -6; INS promoter inh: -4; RGS16-Gao: 100; INS promoter inh cell count: 159; HSV replic up primary fold: 0.9

How did CCCCNC(=O)CC1C(=O)N(Cc2ccccc2)C(C)c2nc3ccccc3n21 (centres undefined) do in these assays?
HSV replic up: inactive; GALR2 ag: -2.4; PKD1 kinase inh: 6; RGS16-Gao: 101; HSV replic up primary fold: 0.85

Results for CCOC(=O)CSc1nnc(Cc2ccccc2)n1-c1ccc(C)cc1 ?
HSV replic up: inactive; GALR2 ag: -2.7; PKD1 kinase inh: -11; INS promoter inh: 20; RGS16-Gao: 85; INS promoter inh cell count: 86; HSV replic up primary fold: 0.91

How did COc1ccc(NC(=O)Cn2cnc3sc(C)c(S(=O)(=O)N4CCOCC4)c3c2=O)c(OC)c1 do in these assays?
HSV replic up: inactive; PKD1 kinase inh: -6; RGS16-Gao: 96; HSV replic up primary fold: 1.2

What do the screens show for `CCCCc1nc(SCC(=O)Nc2nnc(CCCC)s2)n[nH]1`?
HSV replic up: inactive; PKD1 kinase inh: 0; RGS16-Gao: 100; HSV replic up primary fold: 0.95

What do the screens show for `Cc1cccc(NC(=O)CCc2ccc(C)o2)c1`?
HSV replic up: inactive; GALR2 ag: -1.7; PKD1 kinase inh: -9; INS promoter inh: -7; RGS16-Gao: 96; INS promoter inh cell count: 117; HSV replic up primary fold: 1.1

How did CC(=O)Nc1ccc(NC(=O)C2(C)CC2(Cl)Cl)cc1 (centres undefined) do in these assays?
HSV replic up: inactive; PKD1 kinase inh: -6; RGS16-Gao: 101; HSV replic up primary fold: 1.1

Results for Cc1nn(-c2ccccn2)c2c1C(c1c(F)cccc1Cl)C1=C(N2)c2ccccc2C1=O (centres undefined) ?
HSV replic up: inactive; GALR2 ag: 1.1; PKD1 kinase inh: 0; INS promoter inh: -42; RGS16-Gao: 108; INS promoter inh cell count: 101; HSV replic up primary fold: 0.89

How did O=C(C1CCCCN1S(=O)(=O)c1ccccc1[N+](=O)[O-])N1CCCC1 (centres undefined) do in these assays?
HSV replic up: inactive; PKD1 kinase inh: -6; RGS16-Gao: 100; HSV replic up primary fold: 0.97

How did C=C(C)CSc1cc(C)nc2c(-c3ccccc3)c(C)nn12 do in these assays?
HSV replic up: inactive; RGS16-Gao: 100; HSV replic up primary fold: 0.94

What do the screens show for `COc1ccc(N=C2SC(CC(=O)Nc3ccc(OC)cc3OC)C(=O)N2C)cc1` (centres undefined)?
HSV replic up: inactive; GALR2 ag: -0.7; PKD1 kinase inh: -5; INS promoter inh: 55; RGS16-Gao: 102; INS promoter inh cell count: 131; HSV replic up primary fold: 0.97

Results for C(=N\Nc1nncn1/N=C/c1ccco1)/c1ccco1 ?
HSV replic up: inactive; RGS16-Gao: 98; HSV replic up primary fold: 1

Results for O=C(Nc1cccc(F)c1)C1CCN(C(=O)c2ccccc2Cl)CC1 ?
HSV replic up: inactive; GALR2 ag: -0.8; PKD1 kinase inh: -1; INS promoter inh: -17; RGS16-Gao: 101; INS promoter inh cell count: 133; HSV replic up primary fold: 1

How did CCC(=O)/C=C1/Sc2ccc(OC)cc2N1CCO do in these assays?
HSV replic up: inactive; PKD1 kinase inh: 5; RGS16-Gao: 99; HSV replic up primary fold: 0.92

What do the screens show for `CCN1CCN(C(=S)c2ccc(O)cc2)CC1`?
HSV replic up: inactive; PKD1 kinase inh: 0; INS promoter inh: -64; RGS16-Gao: 67; INS promoter inh cell count: 70; HSV replic up primary fold: 1

Results for CCOC(=O)c1sc(NC(=O)CSc2nc3c(cc2C#N)CCC3)c(C#N)c1C ?
GALR2 ag: -0.7; PKD1 kinase inh: -2; INS promoter inh: -264; INS promoter inh cell count: 59

How did C=CCc1cccc2cc(C(=O)NCc3ccc(C(=O)OCC)o3)c(=O)oc12 do in these assays?
HSV replic up: inactive; GALR2 ag: 0.2; PKD1 kinase inh: 3; INS promoter inh: -11; RGS16-Gao: 99; INS promoter inh cell count: 67; HSV replic up primary fold: 0.81

Results for CCN1CCN(C(c2ccccc2)c2nnnn2Cc2ccc(OC)cc2)CC1 (centres undefined) ?
HSV replic up: inactive; PKD1 kinase inh: -6; INS promoter inh: 42; RGS16-Gao: 96; INS promoter inh cell count: 38; HSV replic up primary fold: 0.89

How did Cc1ccc(OCC(O)Cn2c(N3CCOCC3)nc3c2c(=O)[nH]c(=O)n3C)cc1 (centres undefined) do in these assays?
HSV replic up: inactive; GALR2 ag: -2.8; PKD1 kinase inh: 6; RGS16-Gao: 21; HSV replic up primary fold: 0.88

How did Cc1ccc(C)c(S(=O)(=O)N2C(=S)NC(=O)C2CC(C)C)c1 (centres undefined) do in these assays?
HSV replic up: inactive; GALR2 ag: -3.2; PKD1 kinase inh: -9; INS promoter inh: 23; RGS16-Gao: 65; INS promoter inh cell count: 142; HSV replic up primary fold: 0.96

Three entries picked at random from the list so far, as already listed:
How did C=CCc1cccc2cc(C(=O)NCc3ccc(C(=O)OCC)o3)c(=O)oc12 do in these assays?
HSV replic up: inactive; GALR2 ag: 0.2; PKD1 kinase inh: 3; INS promoter inh: -11; RGS16-Gao: 99; INS promoter inh cell count: 67; HSV replic up primary fold: 0.81

Results for Cc1nn(-c2ccccn2)c2c1C(c1c(F)cccc1Cl)C1=C(N2)c2ccccc2C1=O (centres undefined) ?
HSV replic up: inactive; GALR2 ag: 1.1; PKD1 kinase inh: 0; INS promoter inh: -42; RGS16-Gao: 108; INS promoter inh cell count: 101; HSV replic up primary fold: 0.89

What do the screens show for `CCCCc1nc(SCC(=O)Nc2nnc(CCCC)s2)n[nH]1`?
HSV replic up: inactive; PKD1 kinase inh: 0; RGS16-Gao: 100; HSV replic up primary fold: 0.95
